Screening results (PubChem BioAssay)
DUX4 txn inh – inhibitors of DUX4-driven ZSCAN4 reporter expression, primary screen, 293T cells, Gaussia and Italica luciferase; 293T-iDUX4 ZSCAN4-Gaussia luciferase reporter, 24 h; active compounds read low; activity change, negative = inhibition, % (test concentration not listed); 0.8% of 37,000 active; AID 1224904, 2016;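 active = -10% or lower and over 25 points stronger than a control reporter; inconclusive = -10% or lower with a smaller gap; inactive = above -10%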;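 also: 0% = median of neutral control wells and -100% = median of positive control wells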
DUX4 txn inh difference – recorded beside DUX4 txn inh, whose call it bears; Gaussia minus Italica difference, %; measured here: selective DUX4 reporter inhibition;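 worked out from the two reporters; negative = selective loss of the DUX4 reporter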
DUX4 txn inh control – recorded beside DUX4 txn inh, whose call it bears; activity change, negative = inhibition, %; measured here: Italica tet-on control reporter;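 0 = neutral control and -100 = positive control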
Starred values were filed as active, the others as inactive; ? = inconclusive; . = no result given. These rows are one share of the data, so the mix of outcomes need not match the whole.

DUX4 txn inh control | Structure | DUX4 txn inh difference | DUX4 txn inh
4.3 | C[C@@H]1CN([C@@H](C)CO)C(=O)c2cc(NC(=O)Nc3cccc4ccccc34)ccc2O[C@H]1CN(C)Cc1ccc(Cl)c(Cl)c1 | -2.2 | 2.1
. | O=C(C[C@@H]1CC[C@@H]2[C@H](COC[C@@H](O)CN2C(=O)Nc2ccc(Cl)c(Cl)c2)O1)NCc1ccc(Cl)c(Cl)c1 | . | ?
6.7 | CCCNC(=O)N1[C@H](C#N)[C@H](c2ccccc2-c2ccccc2)[C@@H]1CO | -2.6 | 4.2
6.5 | CCCC(=O)Nc1ccc2c(c1)C(=O)N(C)[C@H]1CC[C@H](CC(=O)N3CCCCC3)O[C@@H]1CO2 | -1.4 | 5.1
1.2 | CN1C[C@H]2[C@@H](c3ccccc31)[C@@H](CO)N2C(=O)Nc1cccc(F)c1 | 0.4 | 1.5
-1.2 | CN1CCN(C(=O)C[C@H]2CC[C@H]3[C@@H](COC[C@@H](O)CN3C(=O)Cc3ccccc3)O2)CC1 | 8.1 | 6.8
6.9 | O=C(NCCc1ccncc1)[C@@H]1[C@@H](CO)[C@@H]2Cn3c(ccc(-c4ccncc4)c3=O)[C@H]1N2 | -7.3 | -0.4
-0.2 | O=C(NC[C@H]1[C@@H](c2ccccc2)[C@@H](CO)N1C(=O)Cc1cccnc1)C1CC1 | -1.4 | -1.6
3.9 | O=C(NCC[C@@H]1CC[C@@H](NC(=O)C2CCOCC2)[C@@H](CO)O1)c1cc(Cl)cc(Cl)c1 | 4.2 | 8.1
. | Cc1ccccc1S(=O)(=O)N1C[C@@H](O)COC[C@@H]2O[C@H](CC(=O)N3CCC(Cc4ccccc4)CC3)CC[C@H]21 | . | ?
-5.2 | CC(C)NC(=O)N(C)C[C@H]1OCc2ccccc2-c2ccccc2C(=O)N([C@H](C)CO)C[C@H]1C | 0.8 | -4.4
4.8 | COc1ccc(C#Cc2ccc3c(c2)[C@H]2[C@H](CCN2C(C)=O)[C@H](CO)N3)cc1 | -1.8 | 3.0
-4.6 | CS(=O)(=O)N1CC2(C1)[C@@H](c1ccccc1)[C@@H](CO)N2Cc1ccccc1 | 5.4 | 0.9
0.1 | COc1ccc(NC(=O)N(C)C[C@@H]2OCCCC[C@H](C)Oc3ccc(NC(=O)c4ccncc4)cc3C(=O)N([C@@H](C)CO)C[C@@H]2C)cc1 | 0.5 | 0.6
-1.8 | C[C@H]1CN([C@@H](C)CO)C(=O)c2cc(NC(=O)Cc3ccccc3)ccc2O[C@@H]1CN(C)S(C)(=O)=O | -1.2 | -3.0
0.2 | COc1ccc(-c2ccc3c(c2)[C@@H]2[C@@H](CCN2C(=O)C2CCCCC2)[C@H](CO)N3C)cc1 | 3.6 | 3.8
1.6 | O=C(Nc1ccccc1)N1C[C@@H]2[C@H](c3ccccc31)[C@@H](CO)N2C(=O)c1ccccn1 | 0.3 | 1.8
-1.1 | COCC(=O)N1CCCCN2[C@@H](CO)[C@H](c3ccc(-c4ccc(F)cc4)cc3)[C@@H]2C1 | 7.5 | 6.4
2.1 | CN(C)C(=O)c1ccc(-c2ccc(C3[C@H]4CNC[C@@H]3N4S(=O)(=O)c3ccccc3)cc2)cc1 (stereo not given in full) | 19.3 | 21.4
1.1 | O=C(C[C@H]1CC[C@@H](NC(=O)c2ccc(F)cc2)[C@@H](CO)O1)NCCc1ccccc1 | -1.0 | 0.1
5.1 | CS(=O)(=O)N1[C@@H]2Cn3c(ccc(-c4ccc(F)cc4)c3=O)[C@H]1[C@@H](C(=O)NCC1CC1)[C@@H]2CO | -7.5 | -2.3
-1.2 | CN1C(=O)c2cc(NC(=O)c3cccc(F)c3)ccc2OC[C@H]2O[C@H](CC(=O)Nc3ccccc3)CC[C@@H]21 | 2.1 | 0.8
-2.2 | COc1ccc(C(=O)N2C[C@@H]3[C@H](c4ccccc42)[C@@H](CO)N3Cc2ccccc2Cl)cc1 | -0.7 | -2.9
2.5 | CCCN1[C@@H]2c3ccc(-c4ccc(OC)cc4)c(=O)n3C[C@@H]2[C@@H](CO)[C@@H]1C(=O)NCC | -3.9 | -1.4
-0.8 | C[C@H]1CN([C@@H](C)CO)C(=O)c2cc(C#CC3(O)CCCC3)cnc2O[C@H]1CN(C)C(=O)Cc1ccncc1 | -0.8 | -1.5

Part of the list above with just DUX4 txn inh:
mol | DUX4 txn inh
CS(=O)(=O)N1CC2(C1)[C@@H](c1ccccc1)[C@@H](CO)N2Cc1ccccc1 | 0.9
COc1ccc(NC(=O)N(C)C[C@@H]2OCCCC[C@H](C)Oc3ccc(NC(=O)c4ccncc4)cc3C(=O)N([C@@H](C)CO)C[C@@H]2C)cc1 | 0.6
C[C@H]1CN([C@@H](C)CO)C(=O)c2cc(NC(=O)Cc3ccccc3)ccc2O[C@@H]1CN(C)S(C)(=O)=O | -3.0
COc1ccc(-c2ccc3c(c2)[C@@H]2[C@@H](CCN2C(=O)C2CCCCC2)[C@H](CO)N3C)cc1 | 3.8
O=C(Nc1ccccc1)N1C[C@@H]2[C@H](c3ccccc31)[C@@H](CO)N2C(=O)c1ccccn1 | 1.8

Remaining list, next part.
DUX4 txn inh control | Structure | DUX4 txn inh difference | DUX4 txn inh
2.8 | CS(=O)(=O)N1CC(=O)N2[C@H](C1)[C@H](c1ccc(C#Cc3ccc(F)cc3)cc1)[C@@H]2CO | -12.3 | -9.5
-4.8 | O=C(C[C@H]1CC[C@H](NS(=O)(=O)c2cccc(F)c2)[C@@H](CO)O1)NCc1ccc2c(c1)OCO2 | 0.4 | -4.4
3.1 | COc1ccc(NC(=O)N(C)C[C@@H]2OCc3cnnn3CCCC(=O)N([C@@H](C)CO)C[C@H]2C)cc1 | -1.8 | 1.4
7.6 | C[C@H]1CN([C@@H](C)CO)C(=O)c2cc(NS(=O)(=O)c3cccs3)ccc2O[C@@H]1CN(C)Cc1ccc(C(=O)O)cc1 | -8.4 | -0.7
1.0 | COc1ccccc1-c1cnc2c(c1)C(=O)N([C@@H](C)CO)C[C@H](C)[C@@H](CN(C)C(=O)CC1CC1)O2 | 0.3 | 1.3
3.5 | CO[C@H]1CC[C@@H]2CCOc3ccc(C#N)cc3C(=O)N(C)C[C@H](OC)[C@@H](C)C(=O)N(C)C[C@@H]1O2 | -5.1 | -1.6
1.3 | O=C(C[C@H]1C[C@@H]2c3cc(NS(=O)(=O)c4ccc(F)cc4)ccc3O[C@@H]2[C@H](CO)O1)NCc1cccnc1 | -3.3 | -2.1
6.6 | O=S(=O)(c1ccccc1)N1CCCCN2[C@H](CO)[C@H](c3ccc(C#CC4CCCC4)cc3)[C@@H]2C1 | 16.2 | 22.9
8.2 | CCCNC(=O)[C@H]1[C@H](CO)[C@H]2Cn3c(ccc(C4=CCCC4)c3=O)[C@H]2N1CCC | -4.8 | 3.4
-10.1 | COc1ccc2c3c([nH]c2c1)[C@H](CO)N(C(=O)Nc1ccc(F)cc1)CC31CCN(CC2CCOCC2)CC1 | 10.4 | 0.3
. | C[C@@H]1CN([C@H](C)CO)C(=O)CCCn2nncc2CO[C@@H]1CN(C)Cc1ccc(C(=O)Nc2ccccc2N)cc1 | . | ?
4.6 | COc1ccc(-c2cnc3c(c2)C(=O)N([C@H](C)CO)C[C@@H](C)[C@@H](CN(C)C(=O)Nc2c(C)noc2C)O3)cc1 | -3.6 | 1.0
-0.9 | C[C@H]1CN([C@@H](C)CO)S(=O)(=O)c2ccc(-c3ccncc3)cc2O[C@@H]1CN(C)C(=O)Nc1ccc(F)cc1 | 0.9 | 0.0
-2.2 | CNC[C@@H]1OCCCC[C@@H](C)Oc2ccc(NS(=O)(=O)c3ccc(F)cc3)cc2C(=O)N([C@@H](C)CO)C[C@H]1C | -1.6 | -3.8
1.7 | N#C[C@H]1[C@@H](c2ccccc2C2=CCCCC2)[C@H](CO)N1C(=O)C1CCOCC1 | -3.1 | -1.4
-2.4 | COc1ccc(NC(=O)Nc2ccc3c(c2)[C@@H]2C[C@@H](CC(=O)NCc4ccncc4)O[C@H](CO)[C@@H]2O3)cc1 | 5.8 | 3.4
1.4 | N#C[C@H]1[C@@H](c2ccccc2)[C@@H](CO)N1S(=O)(=O)c1cccc(F)c1 | -1.5 | -0.1
1.8 | CO[C@@H](CN(C)C(=O)c1ccccc1F)[C@@H](C)CN([C@H](C)CO)S(=O)(=O)c1ccc(F)cc1 | -6.4 | -4.6
5.1 | COCC(=O)Nc1ccc2c(c1)C(=O)N(C)[C@@H]1CC[C@H](CC(=O)NCCc3ccccc3)O[C@@H]1CO2 | -4.5 | 0.6
1.8 | C[C@@H]1CCCCO[C@H](CN(C)C(=O)Nc2cccc3ccccc23)[C@H](C)CN([C@@H](C)CO)C(=O)c2cc(NC(=O)CCC(F)(F)F)ccc2O1 | -1.6 | 0.2
0.2 | CN(C[C@H]1N[C@@H](CO)[C@@H]1c1ccc(C2=CCCC2)cc1)C(=O)c1ccccn1 | -3.0 | -2.8
7.1 | CN(C)C(=O)c1ccc(-c2ccc(C3[C@@H]4CN(S(=O)(=O)c5ccccc5F)C[C@H]3N4)cc2)cc1 (stereo not given in full) | -6.3 | 0.8
. | C[C@H](NC(=O)C[C@H]1CC[C@@H](NC(=O)Cc2ccccn2)[C@@H](CO)O1)c1ccccc1 | . | ?
2.6 | COc1ccc2c3c(n(C)c2c1)[C@@H](CO)NCC31CN(Cc2cc(-c3ccccc3)on2)C1 | -1.6 | 1.0
-3.6 | C[C@@H]1CN([C@H](C)CO)C(=O)CCCn2nncc2CO[C@@H]1CN(C)S(=O)(=O)c1ccc(Oc2ccccc2)nc1 | 7.3 | 3.7

A different layout for part of the listing above.
Values run as follows: DUX4 txn inh control	DUX4 txn inh difference	DUX4 txn inh
- Cc1ccccc1S(=O)(=O)N1C[C@@H](O)COC[C@@H]2O[C@H](CC(=O)N3CCC(Cc4ccccc4)CC3)CC[C@H]21
  .	.	?
- CC(C)NC(=O)N(C)C[C@H]1OCc2ccccc2-c2ccccc2C(=O)N([C@H](C)CO)C[C@H]1C
  -5.2	0.8	-4.4

Additional compounds follow:
DUX4 txn inh control | Structure | DUX4 txn inh difference | DUX4 txn inh
0.5 | Cc1noc(C)c1S(=O)(=O)N(C)C[C@@H]1Oc2ccc(NS(=O)(=O)c3cccs3)cc2C(=O)N([C@H](C)CO)C[C@@H]1C | 2.6 | 3.1
-1.5 | COc1ccc(CN(C)C[C@@H]2OCCCC[C@@H](C)Oc3ccc(NS(C)(=O)=O)cc3C(=O)N([C@@H](C)CO)C[C@@H]2C)cc1 | 4.6 | 3.1
-0.4 | O=C(Cc1cccnc1)N1CC2(C1)[C@H](c1ccccc1)[C@H](CO)N2C(=O)C1CCC1 | 1.3 | 0.9
0.0 | CCN1[C@@H]2c3ccc(-c4cccc(F)c4)c(=O)n3C[C@@H]2[C@@H](CO)[C@@H]1C(=O)NCCCN(C)C | -5.3 | -5.3
10.9 | CN1CCN(C(=O)C[C@@H]2CC[C@H]3[C@@H](COC[C@@H](O)CN3C(=O)Nc3ccc4c(c3)OCO4)O2)CC1 | -7.7 | 3.2
-2.2 | CCC(=O)Nc1ccc2c(c1)OC[C@H](C)N(C(=O)C1CC1)C[C@H](C)[C@H](OC)CN(C)C2=O | -0.1 | -2.2
-5.9 | O=C(Nc1cc(F)ccc1F)N[C@H]1CC[C@H](CC(=O)N2CCc3ccccc3C2)O[C@@H]1CO | 5.3 | -0.7
-0.8 | O=C(C[C@@H]1CC[C@@H]2[C@H](COC[C@@H](O)CN2Cc2nccs2)O1)NCc1ccccc1F | -1.9 | -2.7
-10.7 | CCNC(=O)Nc1ccc2c(c1)C(=O)N(C)[C@H]1CC[C@H](CC(=O)Nc3cccc(F)c3)O[C@@H]1CO2 | 14.8 | 4.2
4.4 | C[C@@H]1CCCCO[C@@H](CN(C)C(=O)Nc2ccc(F)cc2)[C@@H](C)CN([C@H](C)CO)C(=O)c2cc(NC(=O)NC3CCCCC3)ccc2O1 | -3.4 | 1.0
-2.9 | O=C(c1cccc(F)c1)N1CC(=O)N2[C@H](C1)[C@H](c1ccc(-c3ccccc3)cc1)[C@@H]2CO | 3.2 | 0.3
-0.4 | N#Cc1ccc(-c2ccc([C@@H]3[C@@H](CO)N4C(=O)CNC[C@H]34)cc2)cc1 | 3.3 | 2.9
17.5 | CN(C)CC(=O)N1[C@H](C#N)[C@H](c2ccccc2-c2cccc(C(=O)N(C)C)c2)[C@@H]1CO | -4.1 | 13.4
0.3 | C/C=C/c1ccc([C@@H]2[C@H]3CN(Cc4ccccc4)CC(=O)N3[C@H]2CO)cc1 | 8.8 | 9.1
-4.1 | O=C(C[C@H]1CC[C@H](NC(=O)c2cccnc2)[C@H](CO)O1)NCc1ccc(Cl)c(Cl)c1 | 4.2 | 0.1
-1.8 | C[C@H]1CN([C@@H](C)CO)C(=O)CCCn2cc(nn2)CO[C@H]1CN(C)S(C)(=O)=O | 4.5 | 2.7
6.9 | Cc1ccc(-c2cnc3c(c2)C(=O)N([C@H](C)CO)C[C@@H](C)[C@@H](CN(C)C(=O)Cc2ccccc2)O3)cc1 | -4.5 | 2.5
11.9 | O=C(NCCN1CCCCC1)[C@@H]1N[C@@H]2c3ccc(-c4cccnc4)c(=O)n3C[C@@H]2[C@H]1CO | -16.1 | -4.3
-44.0 | CN1c2ccc(C#Cc3cccnc3)cc2[C@H]2[C@H](CCN2C(=O)C2CCCCC2)[C@@H]1CO | 50.2 | 6.1
-0.4 | N#C[C@@H]1[C@H](c2ccc(C#Cc3ccccc3F)cc2)[C@H](CO)N1C(=O)C1CCCCC1 | -4.0 | -4.4
. | Cc1cccc(S(=O)(=O)N2CCCCN3[C@@H](CO)[C@H](c4ccc(C#C[C@H](C)O)cc4)[C@@H]3C2)c1 | . | ?
-3.0 | CC=Cc1ccc2n(c1=O)C[C@H]1[C@H](CO)[C@@H](C(=O)NCC)N(Cc3nccs3)[C@@H]21 (mixture of isomers) | 5.2 | 2.2
0.6 | O=C(O)[C@@H]1[C@@H](CO)[C@@H]2Cn3c(ccc(C4=CCCCC4)c3=O)[C@@H]2N1Cc1ccccc1F | 0.1 | 0.7
